Measles inh: inhibitors of measles virus growth in cells, primary screen, measles RdRp inhibitor project, cell-based, single point, HTS | infected Vero cells, GFP fluorescence, 64 h; hits give low values | z-score (no concentration beside the values) | 33,000 tested, 0.1% active | AID 745, 2007;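 active means z-score under -3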;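 further: score is relative to mean and SD of the compound wells of a plate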
* marks the source's active call; other numbers are inactive results. These rows are one share of the data; rates above refer to the full screens.

SMILES	Measles inh
O=C(CCNc1cccc(C(F)(F)F)c1)c1cccs1	0.04
COC(=O)C1=C(C)Nc2nnnn2C1c1ccc(OC)cc1 (stereo unspecified)	-0.19
CCOC(=O)c1c(C)oc2ccc(OC(C)C(=O)OCC)cc12 (stereo unspecified)	0.21
C=CCOC(=O)C1=C(C)N=C2SCCC(=O)N2C1c1ccc(F)cc1 (stereo unspecified)	-0.24
Cc1cccc(NC(=O)c2cc(S(=O)(=O)N3CCN(c4cccc(C)c4C)CC3)ccc2F)c1C	-1.2
CCCOC(=O)c1ccc(NC(=O)COc2ccc(Cl)cc2)cc1	-1.1
S=c1nc(-c2ccccc2Cl)[nH][nH]1	-0.23
CCCCN(CC)S(=O)(=O)c1ccc(C(=O)Nc2ccc3c(c2)C(=O)c2ccccc2C3=O)cc1	-0.14
COC(=O)C1C(=O)C2=C(CC1C)NC(C)=C(C(=O)OC1CCCC1)C2c1ccc(OC)cc1OC (stereo unspecified)	0.32
C=CCn1c(SCC(=O)Nc2ccccc2F)nc2sc3c(c2c1=O)CCC3	0.26
COc1ccc(N2C3=C(C(=O)CC(C)(C)C3)C(c3ccccc3)C3=C2c2ccccc2C3=O)cc1 (stereo unspecified)	-0.57
NC(=O)c1ccccc1NC(=O)CN1CCCCC1	-0.99
Cc1ccc(Cl)cc1N(Cc1ccc(C(=O)NCC2CCCO2)cc1)S(=O)(=O)c1ccccc1 (stereo unspecified)	-1.5
Cc1cc(C)n(-c2n[nH]c(C)c2[N+](=O)[O-])n1	0.44
COc1ccc(Nc2ncnc3ccc(Br)cc23)cc1	-0.47
Cc1cccc(C)c1OCC(=O)Nc1sc2c(c1C#N)CCCC2	-1
COc1ccc(CNC(=O)CC2N=C3c4ccccc4N=C(SCc4ccccc4Cl)N3C2=O)cc1 (stereo unspecified)	-0.06
Cc1ccc(CSCc2ccc(C(=O)NC3CCCC3)o2)cc1	0.41
CSc1sc(C)cc1C1C(C(=O)Nc2ccc(C)cn2)=C(C)NC2=C1C(=O)CC(c1ccccc1)C2 (stereo unspecified)	-0.13
COc1cccc(-n2ccnc2SCC(=O)Nc2cccc3ccccc23)c1	-0.99
CCc1cccc(NC(=O)C2c3ccccc3Oc3ccccc32)c1	-0.66
CN1C(=O)c2ccccc2C(C(=O)N2CCCC2)C1c1cn(C)c2ccccc12 (stereo unspecified)	3.4
Cc1c(C(=O)N(C)C)sc2c1c(=O)n(-c1ccc(Cl)cc1)c(=O)n2Cc1cccc([N+](=O)[O-])c1	0.01
CCOCCCNC(=O)Cn1cnc2c1c(=O)n(C)c(=O)n2C	0.17
CCOC(=O)C1CCN(c2cc(Nc3ccc(OCC)cc3)c3c4c(onc24)-c2ccccc2C3=O)CC1	-0.08

New compounds follow.
SMILES	Measles inh
Cc1ccc2nc(-c3ccc(C)c(NC(=O)c4ccc(Br)cc4)c3)oc2c1	0.66
c1ccc2[nH]c(CCCCCCCCc3nc4ccccc4[nH]3)nc2c1	-0.29
CCCCN1CCc2c1nc1ccc(Br)cc1c2N	-0.72
CN1c2ccccc2N(C)C1(C)c1ccc(C2(C)N(C)c3ccccc3N2C)cc1	-1.5
CCOC(=O)c1sc(N2C(=O)C(=O)/C(=C(/O)c3ccc(C)cc3)C2c2ccc(F)cc2)nc1C (stereo unspecified)	-0.58
CN1CCN(C(=O)c2ccc(SCc3cccnc3)c([N+](=O)[O-])c2)CC1	0.41
CCOC(=O)Cc1cnc(NC(=O)CSc2nnc3c(n2)-c2cccc4cccc-3c24)s1	-0.18
O=[N+]([O-])c1ccc(N2CCOCC2)cc1NCCOc1ccc(Cl)cc1	-0.43
COc1ccccc1-n1nc(C(=O)N2CCCCCC2)c2ccccc2c1=O	1.2
Fc1ccccc1Cn1cc(C(=S)N2CCOCC2)c2ccccc21	-0.48
O=C(CCn1c(=O)[nH]c2ccccc2c1=O)N1CCN(c2ccccc2)CC1	-0.34
COCCNC(=O)Nc1ccc2nsnc2c1	-0.25
O=C(COC(=O)c1ccccc1Cl)c1ccc(-c2ccc(Br)cc2)cc1	-0.37
Cc1ccc(NC(=O)CCS(=O)(=O)c2cccc3nonc23)c(Cl)c1	-0.51
O=C(Nc1cccc(F)c1)C1CCN(S(=O)(=O)c2cccs2)CC1	-1.6
Cc1ccc(C(=O)Nc2ccccc2C(=O)OCCN2CCCC2=O)cc1	0.45
COc1ccc(-c2cc(C(=O)Nc3cc(Cl)ccc3OC)no2)cc1	0.57
CC(=O)Nc1ccc(OCC(O)Cn2c3ccccc3c3ccccc32)c(C)c1 (stereo unspecified)	0.3
O=[N+]([O-])c1ccc(S(=O)(=O)Nc2nc(-c3ccc(Cl)cc3)cs2)cc1	-0.92
CCOc1ccccc1NC(=O)CN1CCN(S(=O)(=O)c2ccc(F)cc2)CC1	-0.76
CCc1ccccc1NC(=O)c1cc2cc3ccc(C)cc3nc2o1	1.9
CC(C)c1ccc(NC(=O)c2cc(S(=O)(=O)NCc3ccccc3Cl)ccc2F)cc1	-0.91
O=c1c2sccc2nc(SCc2nc3ccccc3[nH]2)n1-c1ccc(F)cc1	-0.54
O=C(CSc1nc2ccsc2c(=O)n1C1CC1)c1ccc(F)cc1	1.7
CCCCOc1ccc(C(=O)Nc2nc3ccc4nc(C)sc4c3s2)cc1	0.94

Continued, overlapping the part above by two compounds.
SMILES	Measles inh
O=C(CSc1nc2ccsc2c(=O)n1C1CC1)c1ccc(F)cc1	1.7
CCCCOc1ccc(C(=O)Nc2nc3ccc4nc(C)sc4c3s2)cc1	0.94
CCN(CC)CCNC(=O)c1c(O)c2c([nH]c1=O)CCCC2	-0.53
CCOc1cc(C2NC(=S)NC(C)=C2C(=O)OC)ccc1OCc1ccccc1 (stereo unspecified)	-2
COC(=O)c1cccc(N2C(=O)c3ccc([N+](=O)[O-])cc3C2=O)c1	-0.37
CCOc1cc(C(Nc2ccccn2)c2ccc3cccnc3c2O)ccc1OC (stereo unspecified)	0.32
COc1cccc(NC(=O)CN2CCN(c3ccccn3)CC2)c1	-0.2
NCCSC1CC(=O)N(c2ccc(OC(F)(F)F)cc2)C1=O (stereo unspecified)	-0.98
CCCCC(=O)NC(c1ccc(Cl)cc1)c1ccc2cccnc2c1O (stereo unspecified)	-0.02
Cc1cccc(N(CC(N)=O)S(=O)(=O)c2ccccc2)c1C	-0.31
CCCCCOC(=O)C1=C(C)N(C)C(=O)NC1c1ccccc1Cl (stereo unspecified)	-1.3
O=C(Nc1ccc(N2CCOCC2)c(Cl)c1)c1ccc(-c2ccc(Cl)cc2)o1	0.35
COc1ccc(C2CC(C(F)(F)F)n3nc(C(=O)N4CCN(c5cccc(Cl)c5)CC4)cc3N2)cc1 (stereo unspecified)	-0.95
COc1cc2c(cc1OC)C(C(=O)N(C)Cc1ccccc1)C(c1ccccc1F)N(C)C2=O (stereo unspecified)	-0.42
COc1cccc(OC)c1C(=O)Nc1c2c(nn1-c1ccc(F)cc1)CS(=O)C2 (stereo unspecified)	0.27
CCCCC(NS(=O)(=O)c1ccc(C)cc1)C(=O)O (stereo unspecified)	0.91
O=C(O)c1ccccc1-c1ccc(-c2cc(C(=O)O)c3c(ccc4ccccc43)n2)o1	-0.15
COc1ccc(N(C)S(=O)(=O)c2ccc3c(c2)oc(=O)n3C)c(OC)c1	-0.36
CCOc1ccc(C2Oc3nc(SCC)nnc3-c3ccccc3N2C(C)=O)cc1OCC (stereo unspecified)	-1.3
CC(C)OC(=O)c1c(NC(=O)c2ccc(Cl)c([N+](=O)[O-])c2)sc2c1CCCC2	-3.8*
Cc1cccc(N2CCN(C(=O)c3cn(C)c(=O)c4c3c3ccccc3n4C)CC2)c1C	1.1
Cc1[nH]c2ccccc2c1C(C[N+](=O)[O-])c1cc(Cl)c2c(c1)OCO2 (stereo unspecified)	-1.2
Cc1ccc(C)c(NC(=O)CSc2nc3c(c(=O)n2-c2ccc(Cl)cc2)SCC3)c1	0.36
COc1ccc(OC)c(C2SCCN2S(=O)(=O)c2ccc(C)cc2)c1 (stereo unspecified)	-0.93
CCCCN(CC)C(=O)Cn1c(=O)n(-c2ccc(C)c(C)c2)c(=O)c2c3c(sc21)CCC3	0.5
CCOC(=O)c1ccc(NC(=O)C(Cc2ccccc2)N2C(=O)c3ccccc3C2=O)cc1 (stereo unspecified)	0.38
CN(C)CCN(CCO)C1=NS(=O)(=O)c2ccccc21	-0.64

Six compounds picked at random from those above, as already listed:
SMILES	Measles inh
CCOC(=O)c1ccc(NC(=O)C(Cc2ccccc2)N2C(=O)c3ccccc3C2=O)cc1 (stereo unspecified)	0.38
COc1ccc(N2C3=C(C(=O)CC(C)(C)C3)C(c3ccccc3)C3=C2c2ccccc2C3=O)cc1 (stereo unspecified)	-0.57
COc1cccc(NC(=O)CN2CCN(c3ccccn3)CC2)c1	-0.2
CCOC(=O)C1CCN(c2cc(Nc3ccc(OCC)cc3)c3c4c(onc24)-c2ccccc2C3=O)CC1	-0.08
Cc1ccc2nc(-c3ccc(C)c(NC(=O)c4ccc(Br)cc4)c3)oc2c1	0.66
CC(=O)Nc1ccc(OCC(O)Cn2c3ccccc3c3ccccc32)c(C)c1 (stereo unspecified)	0.3

New compounds follow.
SMILES	Measles inh
O=C(O)c1ccc2c(c1)C(=O)N(c1cccc(Oc3ccc4c(c3)C(=O)N(c3ccccc3)C4=O)c1)C2=O	-2
Cc1cccn2c(Nc3ccc4c(c3)OCCO4)c(-c3ccc(Br)o3)nc12	1
CC(=O)c1ccc(N2CCN(C(=O)CCS(=O)(=O)c3cccc4nonc34)CC2)cc1	-0.45
COc1ccc2cc(-c3csc(NC(=O)CCC(=O)NC4CCCCCC4)n3)c(=O)oc2c1	0.08
COCCNc1ncnc2ccc(Br)cc12	1
CCOc1cc(C2C=C(c3ccc(F)cc3)Nc3ncnn32)ccc1OC(F)F (stereo unspecified)	-0.19
CC(C)Cn1c(-c2ccc(S(=O)(=O)N3CCOCC3)cc2)csc1=Nc1ccc(F)cc1	-0.73
CCCNS(=O)(=O)c1cc(Br)cc2c1N(C(=O)C1CC1)CC2	1.4
Cc1cccc(C(=O)N2CCN(c3ccc([N+](=O)[O-])c(NCc4ccco4)c3)CC2)c1	-0.09
C=COc1ccc(NC(=O)c2ccccc2C(=O)O)cc1	0.48
CCC(=O)N1CCc2cc(Br)cc(S(=O)(=O)N3CCC(C(=O)Nc4ccccc4F)CC3)c21	0.97
COc1ccc(C2C(C(=O)c3ccccc3)C(=O)CC(C)(O)C2C(=O)c2ccccc2)cc1 (stereo unspecified)	-0.38
CCC1Oc2ccc(Cl)cc2N(CC(=O)O)C1=O (stereo unspecified)	-0.34
Cc1ccc2ccc(C(Nc3ccccn3)c3ccc(F)cc3)c(O)c2n1 (stereo unspecified)	-0.81
Cc1ccccc1CS(=O)(=O)CCC(=O)NCCc1ccc(Cl)cc1	0.62
COCCn1c(=N)c(C(N)=S)cc2c(=O)n3ccccc3nc21	0.33
O=c1c2cc(N3CCOCC3)ccc2nc(SCc2ccccc2F)n1Cc1ccccc1	0.11
O=[N+]([O-])c1ccc(N2CCCCCC2)c(S(=O)(=O)N2CCOCC2)c1	-0.01
Cc1c(C(=O)NCc2ccc(F)cc2)sc2ncn(Cc3ccccc3Cl)c(=O)c12	0.87
Cc1c(C)c2cc3c(-c4ccc(Cl)cc4)coc3cc2oc1=O	-0.35
COc1ccc(-n2nc(C(=O)NCC(=O)NCc3ccccc3)c3ccccc3c2=O)cc1Cl	0.39
O=C1SC(Nc2ccccc2Br)C(=O)N1c1ccccc1 (stereo unspecified)	-0.81
CCOC(=O)c1c(NC(=O)c2cccc(C)c2)sc(C(=O)Nc2ccccc2F)c1C	-0.12
COc1ccccc1N1C(=S)NC2CC1(C)Oc1c(OC)cccc12 (stereo unspecified)	-0.21
CCOCCn1cnc2sc(C(=O)NCc3ccccn3)c(C)c2c1=O	-0.54

Shown as a hit in Measles inh (from the list above):
SMILES	Measles inh
CC(C)OC(=O)c1c(NC(=O)c2ccc(Cl)c([N+](=O)[O-])c2)sc2c1CCCC2	-3.8*

Grouped by structure, those above with a COOH group.
SMILES	Measles inh
CCCCC(NS(=O)(=O)c1ccc(C)cc1)C(=O)O (stereo unspecified)	0.91
O=C(O)c1ccccc1-c1ccc(-c2cc(C(=O)O)c3c(ccc4ccccc43)n2)o1	-0.15
O=C(O)c1ccc2c(c1)C(=O)N(c1cccc(Oc3ccc4c(c3)C(=O)N(c3ccccc3)C4=O)c1)C2=O	-2
C=COc1ccc(NC(=O)c2ccccc2C(=O)O)cc1	0.48
CCC1Oc2ccc(Cl)cc2N(CC(=O)O)C1=O (stereo unspecified)	-0.34

Next part:
SMILES	Measles inh
CCc1ccc(CN2CCCC(C(=O)N3CCCCC3)C2)cc1 (stereo unspecified)	0.97
CCOC(=O)c1c(NC(=O)c2cc3n(n2)C(C(F)(F)F)CC(c2ccc(Br)cc2)N3)sc(C(C)O)c1C (stereo unspecified)	-0.4
O=C(Nc1ccc(F)cc1)c1c(O)c2cccc3c2n(c1=O)CCC3	0.44
NC(=O)c1c(NC(=O)COc2ccc(Cl)cc2C2CCCCC2)sc2c1CCCC2	0.7
CCc1ccccc1NC(=O)c1c(NC(=O)c2ccccc2)sc2c1CCCC2	0.66
CC1=C(C(=O)OCC(C)C)C(c2cccc([N+](=O)[O-])c2)NC(=O)N1 (stereo unspecified)	-1
O=C(Nc1ccc(Br)cc1)C1C2C=CC3(O2)C1C(=O)N(CCC1=CCCCC1)C3C(=O)NC1CCCCC1 (stereo unspecified)	-0.9
CCCc1cc(NCCOC)n2c(nc3ccccc32)c1C#N	-1.6
CCOc1ccc(N2CC(C(=O)O)CC2=O)cc1 (stereo unspecified)	-1.7
Cc1ccc2oc(-c3ccc(NC(=O)c4cc5ccccc5o4)cc3O)nc2c1	-0.23
CCOc1ccc2nc(SC3CC(=O)N(c4ccc(C)cc4C)C3=O)sc2c1 (stereo unspecified)	-0.23
Cc1cc(NC(=O)c2ccccc2[N+](=O)[O-])nc2c1c(=O)oc1ccccc12	-0.11
C=CCn1c(=N)n(CC(O)c2ccc(OCC)cc2)c2ccccc21 (stereo unspecified)	1.8
Cc1ccc(C(C)C)c(OCCNS(C)(=O)=O)c1	-0.04
CC(C)(C)C(=O)Nc1sc2c(c1C#N)CCC2	-0.51
Cc1ccc(C2C(=O)N(C3CCCCC3)CC(=O)N2CCc2ccc(Cl)cc2)cc1 (stereo unspecified)	1.6

High-throughput results from PubChem.
